VDR inhibitor – blocks the human vitamin D receptor; VDR-SRC2-3 peptide fluorescence polarization, 2 h; P11473; Potency, µM, for inactives: max response, negative = inhibition, usual class: inhibitors; 0.93% of 400,000 active; AID 504847; active = well fitted inhibition curve with a large enough effect; inconclusive = small, poorly fitted or top-dose-only effect, or another doubt; inactive = no such curve, though single readings can be large or run the other way; also: series mostly up to about 120 µM
Target sequence (P11473 whole entry, looked up): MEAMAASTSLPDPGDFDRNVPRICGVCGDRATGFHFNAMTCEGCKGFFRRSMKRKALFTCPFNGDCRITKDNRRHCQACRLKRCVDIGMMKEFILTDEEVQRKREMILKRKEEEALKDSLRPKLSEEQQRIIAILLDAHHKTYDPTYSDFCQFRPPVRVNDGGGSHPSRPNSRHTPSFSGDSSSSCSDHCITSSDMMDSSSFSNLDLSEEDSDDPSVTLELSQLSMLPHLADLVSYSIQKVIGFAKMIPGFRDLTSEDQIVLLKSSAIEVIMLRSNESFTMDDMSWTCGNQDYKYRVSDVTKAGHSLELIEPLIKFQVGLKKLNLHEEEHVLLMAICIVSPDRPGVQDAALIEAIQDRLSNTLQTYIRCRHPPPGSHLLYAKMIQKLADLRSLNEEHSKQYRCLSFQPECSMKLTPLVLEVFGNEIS
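VDR–SRC2-3 interaction, FP format. Cmpds 23 nl via pintool, brief spin, 2 h ambient incubation.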
* hit, by the source's call; ? = inconclusive; & = joins results of further samples. % is scaled to controls: 0 for no effect and ±100 for the full control effect; potency is read from the fitted curve at half-maximal effect. These rows are one share of the data; rates above refer to the full screens.

| SMILES | VDR inhibitor |
| --- | --- |
| CCC(NC(=O)CNC(=O)CNC(=O)c1ccc(Cl)cc1Cl)c1ccc(C)cc1 (stereo not drawn) | 6% |
| Nc1ccccc1-c1nc2ccccc2c(=O)o1 | -7% |
| CC(CCc1ccccc1)NC(=O)Cc1cccs1 (stereo not drawn) | -9% |
| COc1ccc(NC(=O)N2CCCC2C(=O)NCc2ccccc2Cl)cc1 (stereo not drawn) | -15% |
| COc1ccc2c(c1)C(=O)CC(c1ccc3c(c1)OCCO3)O2 (stereo not drawn) | -19% |
| Cc1ccc(-c2nc(SC(C)C(=O)N3CCOCC3)n[nH]2)cc1 (stereo not drawn) | -9% |
| CCOC(=O)N1CCN(C(=O)C2CCN(S(=O)(=O)CC)CC2)CC1 | 10% |
| CC(C)Nc1ccc(-c2nc(-c3ccncc3)no2)cc1[N+](=O)[O-] | 11% |
| C/C(=N\NC(=O)c1cc(C)nc2ccccc12)c1cccs1 | -5% |
| CCN(c1ccccc1)S(=O)(=O)c1ccc(OC)c(NC(=O)CN2C(=O)NC(C)(C)C2=O)c1 | -14% |
| CCOC(=O)c1cc2sccc2n1CC(=O)Nc1ccc(OC)cc1 | 8% |
| Cc1cccc(-c2noc(-c3ccc(NCc4cccnc4)c([N+](=O)[O-])c3)n2)c1 | -1% |
| O=C(CCc1ccc(S(=O)(=O)NC2CCCCC2)cc1)N(Cc1ccccc1)Cc1ccccc1 | 11% |
| CN(C)CCOc1ccc(C(C)(C)c2ccccc2)cc1 | -9% |
| COCCn1nnnc1C(c1ccccn1)N1CCN(c2cccc(C)c2C)CC1 (stereo not drawn) | 15% |
| CCOC(=O)c1c(N)sc(-c2ccccc2)c1C | -15% |
| CCCCCCCNC(=O)C1(CC2CC(c3ccccc3)=NO2)CCN(C(=O)OC(C)(C)C)CC1 (stereo not drawn) | -6% |
| CCn1nc(C)c(CN2CCC(n3nccc3NC(=O)Cc3ccccc3)CC2)c1C | 0% |
| C[C@]12c3[nH]c4ccccc4c3CCN1C(=O)C(CC(=O)NCCCn1ccnc1)C[C@@H]2C(=O)N1CCCCC1 (stereo partly drawn) | -9% |
| NC(=O)c1ccc(N2CCC(C(N)=O)CC2)c([N+](=O)[O-])c1 | -3% |
| CC(C)NC(=O)Nc1ccc2c(c1)C(=O)N([C@H](C)CO)C[C@@H](C)[C@@H](CN(C)C(=O)NC1CCCCC1)O2 | -10% |
| CCOc1ccc2c(C)cc(=O)oc2c1OCC | -11% |
| COc1cc(C(=O)Nc2cc(-c3nc4cc(C)ccc4o3)ccc2C)cc(OC)c1OC | -6% |
| COc1ccc(CNC(=O)c2ccc(Cn3c(=O)c4cccn4c4cccnc43)cc2)c(OC)c1 | 7% |
| CCOc1ccc(OCCSc2nc(C)cc(=O)[nH]2)cc1 | -25% |
| Cc1cc(Br)c2[nH]c3c(c2c1)CCCC3=O | 7% |
| CN1C(C(=O)c2ccccc2)=C(NC(=O)c2ccc(F)cc2)c2ccccc2S1(=O)=O | -12% |
| CCOC(=O)C1(Cc2cccc(OC)c2)CCCN(C(=O)CCN2CCCO2)C1 (stereo not drawn) | 14% |
| CSc1nc(Sc2ccccc2)c2ccccc2n1 | 15% |
| CC(OC(=O)Cc1ccsc1)C(=O)Nc1ccc(Cl)cn1 (stereo not drawn) | 5% |
| O=S(=O)(Nc1cccc(CCc2ccccn2)c1)c1cc(Cl)ccc1Cl | -16% |
| CCCCn1c(SCC(=O)N2CC(C)CC(C)C2)nc2cc(S(N)(=O)=O)ccc21 (stereo not drawn) | -15% |
| COc1ccc(CNCCC(c2ccc(F)cc2)c2ccc(OC)cc2)cc1 (stereo not drawn) | 6% |
| C/C(N)=C(/C#N)C(=O)CSc1nc2ccccc2[nH]1 | -3% |
| CCOc1ccccc1N(CC(=O)Nc1ccc2c(c1)OCCO2)S(C)(=O)=O | -4% |
| Cc1ccccc1NS(=O)(=O)c1ccc2c(c1)n(C)c(=O)n2C | -11% |
| Cc1ccc(N(CC(=O)N/N=C/c2ccc(OCC(N)=O)cc2)S(C)(=O)=O)cc1Cl | 9% |
| COC(=O)c1c(NC(C)=O)c2c3c(sc2n1Cc1cc(C)ccc1C)CCCC3 | 2% |
| O=C(Nc1ccc(F)cc1)OCCOc1ccc([N+](=O)[O-])cc1 | 6% |
| CC[C@H](C)[C@H]1CNC(=O)C(=O)N1CC1CCN(CCc2ccc(Cl)c(Cl)c2)CC1 | -24% |
| Cc1c(C#N)c(N=CN(C)C)c(C(=O)c2ccc(Br)cc2)n1-c1ccccc1 | 3% |
| O=C(NCc1csc(-c2cccs2)n1)C1CC1 | -1% |
| O=C(CN1CCN(CC(=O)Nc2ccc(Cl)cc2)CC1)Nc1ccc(F)cc1 | -10% |
| Cc1ccccc1NCc1ccc(O)c2ncccc12 | ? |
| CC(C)CC(COCc1ccc(Cl)cc1)N1CCN(C(=O)c2ccc(Cl)cc2Cl)CCC1=O (stereo not drawn) | -8% |
| COc1ccc(Cl)cc1S(=O)(=O)Nc1ccc2c(c1)n(C)c(=O)n2C | -17%&-7% |
| O=C(COc1ccccc1)c1ccccc1 | 7% |
| COc1ccc(CCNS(=O)(=O)c2ccc(Br)cc2)cc1OC | -5% |
| CNc1ccc(C=C2C=Cc3ccccc32)cc1 | 6% |
| CS(=O)(=O)c1ccc2nc(NC(=O)c3ccc(NS(=O)(=O)c4cccc([N+](=O)[O-])c4)cc3)sc2c1 | -9% |
| CC1CCN(S(=O)(=O)c2ccc(C(=O)N3CCCC3C(=O)O)cc2)CC1 (stereo not drawn) | 11% |
| COc1cc(C2C(S(=O)(=O)c3ccccc3)CON2C)ccc1OCc1ccc(F)cc1 (stereo not drawn) | -4% |
| O=C(NCc1cccnc1)Nc1cccc(C(F)(F)F)c1 | -5% |
| CCCc1cc(CN(C)C(=O)CC2C(=O)NCCN2Cc2ccccc2C)[nH]n1 (stereo not drawn) | -15% |
| CC(=O)NC(NC(=S)Nc1c(C)n(C)n(-c2ccccc2)c1=O)C(Cl)(Cl)Cl (stereo not drawn) | 8% |
| CCn1c(COc2ccc(C)cc2)nnc1SCC(=O)Nc1ccc2c(c1)OCCO2 | 15% |
| CCOC(=O)c1ccc(Nc2nc(N3CCOCC3)nc(N3CCOCC3)n2)cc1 | -6% |
| Cc1ccccc1-c1noc(-c2cccs2)n1 | 0% |
| CN1CN=C(NS(=O)(=O)c2ccc([N+](=O)[O-])cc2)NC1 | 0% |
| O=C(CSCc1cc(=O)n2nc(C3CC3)sc2n1)Nc1ccccc1Cl | -6% |

Arranged by number of heavy atoms (rising): some entries from above.
| SMILES | VDR inhibitor |
| --- | --- |
| O=C(NCc1cccnc1)Nc1cccc(C(F)(F)F)c1 | -5% |
| O=C(CN1CCN(CC(=O)Nc2ccc(Cl)cc2)CC1)Nc1ccc(F)cc1 | -10% |
| COc1cc(C2C(S(=O)(=O)c3ccccc3)CON2C)ccc1OCc1ccc(F)cc1 (stereo not drawn) | -4% |
| CC(C)CC(COCc1ccc(Cl)cc1)N1CCN(C(=O)c2ccc(Cl)cc2Cl)CCC1=O (stereo not drawn) | -8% |

Fetched one by one from the list above, 5 records:
| SMILES | VDR inhibitor |
| --- | --- |
| CN1C(C(=O)c2ccccc2)=C(NC(=O)c2ccc(F)cc2)c2ccccc2S1(=O)=O | -12% |
| O=C(CN1CCN(CC(=O)Nc2ccc(Cl)cc2)CC1)Nc1ccc(F)cc1 | -10% |
| C/C(=N\NC(=O)c1cc(C)nc2ccccc12)c1cccs1 | -5% |
| Cc1c(C#N)c(N=CN(C)C)c(C(=O)c2ccc(Br)cc2)n1-c1ccccc1 | 3% |
| CN(C)CCOc1ccc(C(C)(C)c2ccccc2)cc1 | -9% |

Next section
| SMILES | VDR inhibitor |
| --- | --- |
| CC1(C)CC(CC(=O)Nc2ccccc2[N+](=O)[O-])C(=O)O1 (stereo not drawn) | 16% |
| CC(C)n1cnc2cc(NCc3ccccn3)ccc21 | -7% |
| COCCN(C(=S)Nc1cc(C)cc(C)c1)C(C)c1cccs1 (stereo not drawn) | -14% |
| O=C(CN1CCN(CC(=O)Nc2ccccc2C(F)(F)F)CC1)Nc1ccccc1F | -8% |
| COc1ccc2ncc3c(-c4ccc(C)c(C)c4)nn(CC(=O)NC4CCCCC4)c3c2c1 | 6% |
| COc1ccc(CC(=O)Nc2ccc(S(=O)(=O)Nc3cc(C)on3)cc2)cc1OC | -1% |
| Cc1cc(OCC(=O)Nc2cccnc2)c2c(C)cc(=O)oc2c1 | 6% |
| CCOC(=O)c1c(C)nc2c(c1C)c(=O)oc1ccccc12 | 12% |
| O=C(Cn1nnc(-c2ccccc2)n1)OCc1csc(-c2ccccc2)n1 | -18% |
| CC(=O)c1ccc(NC(=O)C2CCN(S(=O)(=O)c3cccs3)CC2)cc1 | -3% |
| Nc1ccc(NC(=O)c2cc(Cl)ccc2O)c(Cl)c1 | 4% |
| C=C(CCC12O[C@H](C(=O)O)[C@@](O)(C(=O)O)[C@](C(=O)O)(O1)[C@H](OC(=O)/C=C/[C@@H](C)C[C@@H](C)CC)[C@H]2O)[C@@H](OC(C)=O)[C@H](C)Cc1ccccc1 | ? |
| CN(C(=O)CN1C(=O)C2C3CC(C(Br)C3Br)C2C1=O)C1CCCCC1 (stereo not drawn) | -12% |
| O=C1C2CCCCN2C(=O)N1CCCCN1CCN(c2cccc(Cl)c2)CC1 (stereo not drawn) | 13% |
| COc1cccc(NC(=O)CCc2nnc3ccc(N4CCN(c5cccc(OC)c5)CC4)nn23)c1 | ? |
| N=C(N)c1ccc(Cl)cc1 | -2% |
| Cc1nn2c3c(cnc2c1-c1ccccc1)C(=O)CCC3 | 1% |
| O=S(=O)(c1ccc2ccccc2c1)N1CCN(Cc2ccccn2)CC1 | -9% |
| COc1ccc(NC(=O)C2CCCC2)cc1S(=O)(=O)N1CCOCC1 | 0% |
| CC1CCCC(C)N1CC(O)COCc1ccccc1F (stereo not drawn) | -8% |
| COc1ccc(/C=C(\NC(=O)c2cccs2)C(=O)N2CCOCC2)cc1OC | -2% |
| CC(CCc1ccccc1)NC(=O)COC(=O)C1=COCCO1 (stereo not drawn) | -17% |
| Cn1c(CBr)c(C(=O)c2ccc([N+](=O)[O-])cc2)c(=O)n(C)c1=O | -11% |
| CCOC(=O)Cc1c(Sc2ccccc2)c2ccccc2n1C | -5% |
| COC(=O)c1ccc(/C=C/c2ccc3cccc(OC(C)=O)c3n2)cc1 | -11% |
| CCOc1ccc2c(c1)C(N(CCN1CCOCC1)C(=O)Nc1ccc(OC)cc1OC)CC(C)(C)O2 (stereo not drawn) | -5% |
| NS(=O)(=O)c1cc(C(=O)OC2CCOC2=O)ccc1Cl (stereo not drawn) | -7% |
| COc1ccc(NC(=O)CCS(=O)(=O)c2nc(-c3cccs3)cc(C(F)(F)F)n2)cc1OC | 45µM* |
| CN(CC1COc2ccccc2O1)C(=S)Nc1ccccc1 (stereo not drawn) | -15% |
| Cc1ccc(NC(=O)COn2nnc3ccc(S(=O)(=O)N(C)C)cc32)cc1F | 1% |
| O=C(CCc1nnc2ccc(NCc3ccccc3Cl)nn12)NC1CCCCC1 | -16% |
| CC1CCN(S(=O)(=O)c2ccc3c(c2)N(CC(=O)NCCCN2CCCC(C)C2)C(=O)CO3)CC1 (stereo not drawn) | 10% |
| COc1cc(NC(=O)c2cc(=O)[nH]c3ccc(S(=O)(=O)N4CCOCC4)cc23)cc(OC)c1 | -12% |
| O=C(NCCNC(=O)c1ccc(Br)o1)c1cccnc1 | 6% |
| CCOC(=O)c1c(NC(=O)CSc2nnc(-c3c[nH]c4ccccc34)n2CC)sc2c1CCCC2 | -19% |
| CC(NC(=O)C1=CC=CN2CCS(=O)(=O)N=C12)c1ccc(Cl)cc1Cl (stereo not drawn) | -26% |
| CC(=O)c1ccc(N2CCN(C(=O)Nc3cn(CC(C)C)c(=O)c4ccccc34)CC2)cc1 | 8% |
| N#Cc1cn(-c2cccc(C(F)(F)F)c2)c(=O)[nH]c1=O | -9% |
| COC(=O)c1ccc(NC(=S)NCCc2ccccc2C)cc1 | -5% |
| COc1cccc(N(CC(=O)NC2CCCC2)C(=O)CCC(=O)Nc2nccs2)c1 | -5% |

Structures listed above that bear a hit mark in VDR inhibitor:
| SMILES | VDR inhibitor |
| --- | --- |
| COc1ccc(NC(=O)CCS(=O)(=O)c2nc(-c3cccs3)cc(C(F)(F)F)n2)cc1OC | 45µM* |

Further results follow.
| SMILES | VDR inhibitor |
| --- | --- |
| Cc1ccc(C)c(S(=O)(=O)c2c(N)n(/N=C/c3ccco3)c3nc4ccccc4nc23)c1 | 20% |
| Cc1csc(Nc2ccccc2C(F)(F)F)n1 | 11% |
| COc1ccccc1C(=O)NNS(=O)(=O)c1ccc(F)cc1 | -1% |
| Cc1ccc(/C=N/NC(=O)Cn2cnc3c2c(=O)n(C)c(=O)n3C)s1 | -2% |
| c1cc(-c2n[nH]c(-c3ccncc3)n2)ccn1 | -5% |
| O=C(NNC(=O)c1cccs1)c1ccccc1 | -16% |
| CC(C)(C)NC(=O)NC(=O)CSc1ncccn1 | -19% |
| CC(C(=O)Nc1ccc([N+](=O)[O-])cc1Cl)N1CCN(S(=O)(=O)c2cccs2)CC1 (stereo not drawn) | 4% |
| COCCNC(=O)/C(C#N)=C/c1ccc(C)o1 | 11% |
| CCOc1cccc(C(=O)Nc2nc3c(s2)CC(C(C)(C)C)CC3)c1 (stereo not drawn) | 13% |
| CN(C)S(=O)(=O)c1ccc(C(=O)NCC2(N3CCOCC3)CCCCC2)cc1 | -10% |
| CC1CC(=O)N(CC(=O)Nc2ccc(OC(F)(F)F)cc2)c2ccccc2S1 (stereo not drawn) | 9% |
| CC1=C(C(=O)N2CCOCC2)C(c2ccc(O)cc2)NC(=S)N1 (stereo not drawn) | 10% |
| O=C(NCC(c1ccco1)N1CCN(c2ccccc2F)CC1)c1cccs1 (stereo not drawn) | -12% |
| Cc1c(C(=O)NCCc2ccc(S(N)(=O)=O)cc2)sc2nc3n(c(=O)c12)CCCC3 | -5% |
| Cc1cc(NC(=O)C2CC(c3c(F)cccc3Cl)=NO2)n(-c2ccccc2)n1 (stereo not drawn) | -11% |
| CCSC1=NCN(CCCC(=O)O)CN1 | 5% |
| CC(OC(=O)c1ccccc1NCCO)C(=O)Nc1ccnn1C(C)C (stereo not drawn) | -6% |

Assay outcomes: PubChem, National Center for Advancing Translational Sciences (NCATS)
